Screening results as filed in PubChem.
nsP2pro inh: CHIKV nsP2 protease inhibition, primary qHTS; Q8JUX6; FRET peptide cleavage, nsP2pro, fluorescence 1 h; Potency, µM (highest dose often 24.9 µM), inactives show top-dose activity change, negative = inhibition, usual class: inhibitors; hit rate 1.1% among 31,000; AID 1964107; active means well fitted inhibition curve with a large enough effect; inconclusive means small, poorly fitted or top-dose-only effect; inactive means no such curve, though single readings can be large or run the other way; note: nearly all actives have a fitted effect of over 60% in size; a reference inhibitor and vehicle were the controls
Numbers without * were called inactive; i = inactive; ? = inconclusive; & = joins results of further samples; [ ] = remark or other dose. % is set by controls: 0 for no effect and ±100 for the full control effect; potency is the fitted concentration of half-maximal effect.

SMILES | nsP2pro inh
CCc1ccc(CNC(=O)Cn2nc(-c3ccc(Cl)cc3)ccc2=O)cc1 | -20%
CN(C)c1cccc(-c2cnc(NC(=O)c3ccncc3)c3c2CCO3)c1 | -27%[39.2 µM]
O=C(O)CCCCCNC(=O)CSc1nnc(-c2ccc([S+](=O)([O-])N3CCCC3)cc2)n1-c1ccccc1 | i
CCOc1ccccc1C(=O)N(Cc1cc(OC)c(OC)c(OC)c1)C1CCS(=O)(=O)C1 (configuration not stated) | -10%
Cc1ccc2nc3sc(C(=O)NCCc4cccnc4)cc3cc2c1 | i
COc1ccc(CNC(=O)Nc2ccc3c(c2)N(C)C(=O)c2ccccc2S3)cc1 | -19%
Cc1ccc(NC(=O)N2CCN(c3nc(N)nc4sc(-c5cccnc5)nc34)CC2)cc1 | 1%
CCOC(=O)CN1C(=O)c2ccccc2Sc2ncccc21 | -8%
CCOC(=O)OC(C)OC1=C(C(=O)Nc2ccccn2)N(C)S(=O)(=O)c2ccccc21 (configuration not stated) | 0%
CCCN(CCN1CCN(c2ccccc2OC)CC1)C1CCc2ncsc2C1 (configuration not stated) | -3%
CCOC(=O)c1[nH]c2c(c1C)C(=O)CC(c1ccco1)C2 (configuration not stated) | ?
Cc1cc(C)cc(NC(=O)c2cnn(-c3ccc(C)c(C)c3)c2C2CCNCC2)c1 | -16%
Fc1ccc(-c2ccc(CNc3nc(-c4ccccc4C(F)(F)F)nc4ccccc34)cc2)cc1 | -9%
CC(=O)N1c2ccc(S(=O)(=O)NCCC(=O)N(C)Cc3ccccc3)cc2CC1C (configuration not stated) | -13%
Cc1cc(C)n2ncc(C(=O)Nc3ccc(Br)cc3)c2n1 | -6%
COCC(=O)N1CCCN(c2nc3ncccc3o2)CC1 | ?
COCCc1ccc(OCC(O)CNC(C)C)cc1 (configuration not stated) | 0%
CC(=O)Nc1sc2c(c1-c1ccccc1)CCN(C(=O)OC(C)(C)C)C2 | ?
CC(C)NC[C@H]1O[C@@H](CO)[C@@H](O)[C@H]1N1CCN(C)CC1 | -10%[39.2 µM]
C[C@H]1CN(CC[C@H](O)C2CCCCC2)CC[C@@]1(C)c1cccc(O)c1 | -11%
CCC(=O)N1CCc2cc(Br)cc(S(=O)(=O)N3CCCC(C(=O)NCc4cccc(OC)c4)C3)c21 (configuration not stated) | -10%
CC(C)C(=O)N1Cc2ccccc2NC(=O)C12CCNC2 (configuration not stated) | -8%[39.2 µM]
c1ccc2ccccc2c1 | -1%
CCC(C(=O)O)C1CCC(C)C(C(C)C(O)C(C)C(=O)C(CC)C2OC3(C=CC(O)[C@@]4(CC[C@](C)(C5CC[C@@](O)(CC)C(C)O5)O4)O3)C(C)CC2C)O1 (some centres not stated) | -12%[0.199 µM]
O=C(Cc1ccccc1)OC[C@H]1O[C@H](O[C@H]2O[C@H](CO)[C@@H](O)[C@H](O)[C@H]2O)[C@H](O)[C@@H](O)[C@@H]1O | -21%[10 µM]
CC(=O)N[C@H]1[C@H](O[C@H]2CC[C@]3(C)C4CC=C5[C@@H]6CC(C)(C)CC[C@]6(C(=O)O)[C@H](O)C[C@@]5(C)[C@]4(C)CC[C@H]3C2(C)C)O[C@H](CO)[C@@H](O)[C@@H]1O (some centres not stated) | 33%[10 µM]
O=C(O)C1(Oc2ccccc2F)CCN(Cc2ccc(CO)o2)CC1 | -11%
S=c1[nH]c2ccccc2n1CCc1ccccc1 | i
COC(=O)C1=C(c2ccccc2)c2ccccc2S(=O)(=O)N1CC(=O)Nc1ccccc1Cl | -12%
CCOc1cc(C#N)c(NC(=O)c2ccc(OC)c(S(=O)(=O)N3CCN(c4ccccc4)CC3)c2)cc1OCC | -20%
CCCCCc1ccc(-c2ccc(C(=O)Oc3ccc(C(=O)OC)cc3)cc2)nc1 | -14%
CO[C@H]1C(=O)N(C(C)C)[C@H]1C1CCN(C(=O)C(C)C)CC1 | -5%
CCOc1ccccc1-c1nnc2n1N=C(c1ccccc1OC)CS2 | -3%
Cn1ccnc1CCOC(c1cc2nccc(C(=O)O)c2[nH]1)c1ccccc1Cl (configuration not stated) | 104%[activator]
COCC1CN(C2CCC2)CC12CCN(C(=O)c1ccnn1C)CC2 (configuration not stated) | -14%
CNS(=O)(=O)CCNc1nc(-c2ccccn2)nc2c1c(C)nn2C | i
CC(NC(=O)c1ccc2nc(Cc3ccccc3)oc2c1)c1ccccc1 (configuration not stated) | -18%
Cc1cnn(CCC(=O)N2CCC3(CCOCC3)CC2)c1 | 16%
Cc1c(CNC(=O)c2ccccc2C2CCNC2)oc2ccccc12 (configuration not stated) | 2%
CCCCC(O)C(=O)Nc1cc(C(F)(F)F)ccc1Cl (configuration not stated) | -8%
Cc1noc(-c2ccco2)c1C(=O)NCc1cccc(Cl)c1 | -19%
Cc1ccc2c(CC(=O)Nc3nnc(C(C)C)s3)coc2c1C | -14%
CC(=O)NCC(=O)O | 1%[39.2 µM]
Cc1ccc(-n2ncc(C(=O)N3CCCCC3)c2C2CCN(C(=O)OC(C)(C)C)CC2)cc1C | -18%
CC1(C)CC2C(O)c3cocc3CC(C)(O)C2C1 (configuration not stated) | 0%
Cc1ccc(S(=O)(=O)Nc2ccc(Br)cc2C(=O)Nc2nc(-c3ccccc3)cs2)cc1 | -14%
Cn1c2cc(Br)sc2c2cnn(Cc3ccc(F)cc3F)c(=O)c21 | -8%
COc1cccc(CCNC(=O)c2cnc3sc(N4CCCC4)nn3c2=O)c1 | -21%
COc1ccc(OC)c(NC(=O)C(NS(=O)(=O)c2ccc3c(c2)CCCC(=O)N3)C(C)C)c1 (configuration not stated) | -22%
Cc1cc2c(c3oc(=O)c4ccccc4c13)CN(Cc1ccc(F)cc1)CO2 | -16%
COc1cccc(C2c3c(ncn(-c4ccccc4)c3=N)Oc3ccc4ccccc4c32)c1 (configuration not stated) | -1%&-5%
COc1cccc(N(C)C(=S)Oc2ccc3c(c2)CCCC3)n1 | -2%
O=C(COc1ccc(Cl)cc1)N1CCc2nn(CC3CC3)c(=O)n2CC1 | 0%
CN(C)c1cc(N2CCCC(NC(=O)C3CCC3)C2)ncn1 (configuration not stated) | i
O=c1[nH]c2ccc(NCc3ccc(-c4ccccc4F)o3)cc2[nH]1 | -18%
CC(C)CC(=O)NC[C@@H]1C[C@H](F)CN1C(=O)CCCc1cccs1 | -5%
Cc1cccc(C)c1OC(=O)CSc1nnc(CNC(=O)c2ccccc2)o1 | -18%
O=C(Nc1ccc(Cl)c(Cl)c1)Nc1nnc(Br)s1 | -5%
CCc1cccc(NC(=O)N2CC(c3nnc(C(C)C)o3)C3(CCOCC3)C2)c1 (configuration not stated) | 1%
CCCOc1ccc(C2C(=O)N(C3CCCCC3)CC(=O)N2C2CCCCC2)cc1OC (configuration not stated) | -11%

Remaining list, next part.
SMILES | nsP2pro inh
COCC1(CNCc2c(C)noc2C)C[C@@H](O)[C@@H](O)C1 (some centres not stated) | -3%[39.2 µM]
CC(=O)/C=C/C1C(C)CC(O[C@@H]2O[C@H](CO)[C@@H](O)[C@H](O)[C@H]2O)CC1(C)C (some centres not stated) | ?
O=C(Nc1ccc(N2CCC(NC3Cc4ccccc4C3)CC2)cc1)C1CCCC1 | -2%
Cc1c(OCC(F)(F)F)ccnc1C[S@@](=O)c1nc2ccccc2[nH]1 | ?
CCCCCCCCCCC[C@@H](C[C@@H]1OC(=O)[C@H]1CCCCCC)OC(=O)[C@H](CC(C)C)NC=O | ?
CCN(CC)C(=O)c1cccc(C)c1 | 4%
CC(Sc1oc(-c2cccs2)nc1S(=O)(=O)c1ccccc1)c1ccccc1 (configuration not stated) | -15%
CCC(Sc1nc2ccccc2c2nc(CCn3c(C)nc4ccccc43)nn12)C(=O)Nc1ccc(F)cc1 (configuration not stated) | -19%
COc1ccc(S(=O)(=O)NC2(C(F)(F)F)NC(=O)N(CCc3ccccc3)C2=O)cc1 (configuration not stated) | -16%
COc1ccc(C(=O)N2CCC3(C2)C(=O)Nc2ccccc23)cc1 (configuration not stated) | 3%
O=C(Nc1ccccc1F)N1CC2CCC(C1)N2Cc1ccc(-c2cc(F)cc(F)c2)cc1 | -3%
CC(=O)O[C@H]1CC2(C)[C@@H](C[C@@H](O)[C@H]3[C@@]4(C)CC[C@@H](O)[C@@H](C)[C@@H]4CC[C@@]32C)C1=C(CCC=C(C)C)C(=O)O (some centres not stated) | 17%
NC(=O)c1cnc(-c2ccc(C3(N)CCC3)cc2)c(-c2ccccc2)c1 | 10%
CC(C)c1nccn1CCCNc1nc(-c2ccncc2)nc2c1cnn2C | -2%
COc1cc(C(=O)N2CCN(c3ccc(Nc4ccccc4)nn3)CC2)cc(OC)c1OC | -16%
FC(F)(F)c1cccc(C2=CCN(CCc3ccc4ccccc4c3)CC2)c1 | 9%
O=S1(=O)N(Cc2ccccc2)CCCN1Cc1cccc(Cl)c1 | -25%
Cc1noc(C)c1CC(=O)N1CCCn2cc(-c3ccccc3F)nc21 | 2%
Cc1ccc2oc(-c3cccc(NC(=O)Cc4ccc(Cl)cc4)c3)nc2c1 | -9%
NC(=O)[C@@H](Cc1ccccc1)NC(=O)C1=C[C@@H](NC(=O)CS(=O)(=O)c2ccccc2)[C@@H](O)[C@H](O)C1 | 0%
CC(=C/C(=O)O)/C=C/[C@]1(O)[C@@]2(C)CO[C@]1(C)C[C@H](O[C@@H]1O[C@H](CO)[C@@H](O)[C@H](O)[C@H]1O)C2 | 43%[activator][10 µM]
C[S+](=O)([O-])N1Cc2ccccc2CC2(CCCN(Cc3ccccn3)C2)C1 (configuration not stated) | 3%
COc1cc2c(cc1OC)C(c1cccc(Cl)c1)CC(=O)N2 (configuration not stated) | -19%
CC(C)(C)OC(=O)N1CCC(c2c(C(=O)NCc3ccc4c(c3)OCO4)cnn2-c2ccc(F)cc2F)CC1 | -16%
CCCOc1ccc(-c2nc(SC)[nH]c(=O)c2C#N)cc1OC | -15%
COC(=O)c1cc2oc3ccccc3c2n1Cc1ccc(Cl)cc1 | -17%
CNC(=O)[C@@H]1C[C@@H](n2cc(CC(C)C)nn2)CN1 | -9%
Cc1cccc(-c2[nH]c(CNc3ccccc3F)nc2-c2ccc3ncnn3c2)n1 | 91%[activator]
O=C(Cc1ccsc1)N1CCC(n2cc(-c3nc(-c4ccccc4)no3)nn2)C1 (configuration not stated) | 5%
CC1CC(=O)C2C(O)(C1)CC(O)C13OC1c1c(O)cccc1C(=O)C23O (configuration not stated) | -1%

3 entries from above, sorted by molecular weight, largest number first:
SMILES | nsP2pro inh
CCCCCCCCCCC[C@@H](C[C@@H]1OC(=O)[C@H]1CCCCCC)OC(=O)[C@H](CC(C)C)NC=O | ?
CCCOc1ccc(-c2nc(SC)[nH]c(=O)c2C#N)cc1OC | -15%
COc1ccc(C(=O)N2CCC3(C2)C(=O)Nc2ccccc23)cc1 (configuration not stated) | 3%

Random excerpt: six compounds from above, in no set order.
SMILES | nsP2pro inh
Cc1cnn(CCC(=O)N2CCC3(CCOCC3)CC2)c1 | 16%
Cc1cccc(C)c1OC(=O)CSc1nnc(CNC(=O)c2ccccc2)o1 | -18%
CCCOc1ccc(C2C(=O)N(C3CCCCC3)CC(=O)N2C2CCCCC2)cc1OC (configuration not stated) | -11%
O=C(O)C1(Oc2ccccc2F)CCN(Cc2ccc(CO)o2)CC1 | -11%
COCC1(CNCc2c(C)noc2C)C[C@@H](O)[C@@H](O)C1 (some centres not stated) | -3%[39.2 µM]
COc1cc2c(cc1OC)C(c1cccc(Cl)c1)CC(=O)N2 (configuration not stated) | -19%

Further records follow:
SMILES | nsP2pro inh
COc1ccc(CCNCC(O)COc2cccc(C)c2)cc1OC (configuration not stated) | -14%
COc1ccc(NC(=O)CSc2nc(-c3ccc(OC)cc3)cc(=O)[nH]2)cc1 | -14%
CCCCN(CC)CCNC(=O)c1cc2c(=O)oc3ccc(C)cc3c2s1 | 23%
CS(=O)(=O)N(Cc1cccnc1)C1CN(C(=O)Nc2ccc3c(c2)OCCO3)C1 | -8%
O=C(O)Cc1cccn1-c1cccc(Cl)c1 | -6%
Cc1n[nH]c(C)c1CCC(=O)Nc1cccn2nc(C3CCC3)nc12 | -24%
COc1ccc(-n2nc(C)c([C@@H]3C=C[C@@H](NCc4ccc(C(C)C)cc4)C3)c2C)cc1 | -20%[39.2 µM]
Cc1nn(C)cc1C(=O)NCCn1c(C)cnc1C1CC1 | 3%
Cn1c(=O)oc2ccc(C(=O)N[C@H](C3CCNCC3)C3CC(O)C3)cc21 (some centres not stated) | -5%
O=C1CCc2cc(S(=O)(=O)Nc3ccc(Cl)c(Cl)c3)c(F)cc2N1 | 3%&2%
CC(C)(C)OC(=O)N[C@@H](Cc1ccc(O[S+](=O)([O-])c2cccnc2)cc1)C(=O)N1CCN(c2ccccc2)CC1 | -14%
COc1ccc(C(=O)N(CCC(C)C)Cc2nc(C)c(C)n2Cc2ccccc2C)c(OC)c1 | 5%
COc1ccc(C(=O)NCCc2sc(-c3ccc(Cl)cc3)nc2C)c(OC)c1 | -20%
Cc1nnc(-c2ccccc2C(C)C)nc1NCc1ccc(-c2cccnc2)cc1 | i
Cc1ccnc2c1NC(=O)c1cccnc1N2C1CC1 | ?
CCN1CCCN(S(=O)(=O)c2cccs2)CC12CCOCC2 | 5%
COC[C@@H]1CCCN1Cc1cc2cc3c(cc2[nH]c1=O)OCO3 | -9%
OC[C@@]1(O)CO[C@H](OC[C@H]2O[C@@H](OCCc3ccccc3)[C@H](O)[C@@H](O)[C@@H]2O)[C@@H]1O | 19%[10 µM]

2 entries from above, as labelled records.
CCN1CCCN(S(=O)(=O)c2cccs2)CC12CCOCC2
  nsP2pro inh = 5%
COc1ccc(NC(=O)CSc2nc(-c3ccc(OC)cc3)cc(=O)[nH]2)cc1
  nsP2pro inh = -14%

Only part of the results is shown (hit frequency here may not be typical).
